# Bioassay records as filed in PubChem.
# NPYLR7 agonist = agonists of mosquito NPYLR7 receptor, primary screen, cell-based, Aedes aegypti, calcium fluorescence, mosquito biting behavior | AID 1259423, 2018 | 270,000 tested, 0.15% active | activation, % at 10 µM | HEK293T NPYLR7/Galpha15, GCaMP6s calcium fluorescence | Aedes aegypti neuropeptide Y-like receptor 7 (NPYLR7); in the data active = activation above about 40%;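 also: 0% = vehicle and 100% = reference agonist at the receptor; some compounds past the cut are filed as inactive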
# NPYLR7 agonist max-min = second read-out of NPYLR7 agonist, no call of its own (marks repeat the call); activation, %; measured here: Max-Min RFU normalised activation; some inactives read as strong as hits;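 span of the calcium signal over five minutes; 0% = vehicle and 100% = native peptide agonist; compound fluorescence can raise it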
# * = called active by the depositor; & = joins results of further samples. Not all compounds are listed; rates above refer to the full screens.
molecule	NPYLR7 agonist	NPYLR7 agonist max-min
Cc1ccc2nc(N(Cc3ccccn3)C(=O)Cc3ccc(S(C)(=O)=O)cc3)sc2c1	3	2
O=C(c1ccco1)N(Cc1cccnc1)c1nc2cc3c(cc2s1)OCCO3	-4	3
O=C(OCC(=O)N1CCCCC1)c1cccc(NC(=O)c2cccs2)c1	2	0
COCCN(Cc1cc(NC(=O)c2cccc(F)c2)ccc1N(C)C)S(C)(=O)=O	1	10
Cc1ccc(S(=O)(=O)c2c(C)cc(C)n(CC(=O)NCc3ccc(F)cc3)c2=O)cc1	-3	-14
CC(Oc1ccc2c(c1)OCO2)c1n[nH]c(C2CC2)n1 (centres undefined)	-2	-3
CC(C)C(CNC(=O)c1cc(S(=O)(=O)NC2CC2)ccc1Br)Nc1ccccc1 (centres undefined)	-2	2
COc1cccc(C2CCN(C(=O)c3ccc(CSC)o3)C2)c1OC (centres undefined)	17	9
FC(F)(F)c1cnc(NN=Cc2ccc3c(c2)OCCO3)c(Cl)c1	4	3
Cn1nc(C2CCCCC2)cc1N	-8	-11
O=C1CCc2cc(Cl)c(S(=O)(=O)NC(c3ccc(F)cc3)C3CCCC3)cc2N1 (centres undefined)	8	6
COc1ccc(N2CCN(c3nc(SC)ncc3CNCCc3cccc(OC)c3)CC2)cc1	2	-2
COc1cc(F)c(CN2CCC3(CCCO3)CCC2=O)cc1OC (centres undefined)	6	0
O=C(O)C1CCCN(c2ccc(C(F)(F)F)cc2[N+](=O)[O-])C1 (centres undefined)	0	-1
CC(C)C[C@H](NC(=O)C1OC1C(=O)O)C(=O)NCCCCN=C(N)N (some centres undefined)	13	1
O=C(CNc1ccc(Cl)cc1)Nc1c(F)cccc1F	-5	-5
Cc1cc(C)n(-c2ccc(C(=O)N(C)Cc3ccon3)cc2)n1	20	12
Cc1cc(I)ccc1NC(=O)CN1CCN(Cc2ccco2)CC1	9	6
CCOc1ccc(-c2ccc(=O)n(CCNC(=O)c3ccc(C(F)(F)F)cc3)n2)cc1	4	3
COc1ccc(Cl)cc1N1CC(C(=O)Nc2ccc(F)cc2C(F)(F)F)CC1=O (centres undefined)	5	1
O=C1CCCCCN1CC(=O)N1CCCC2(C1)C(=O)Nc1ccccc12 (centres undefined)	-1	10
CCN(Cc1ccc(OC)c(F)c1)C(=O)Nc1ccccc1F	6	7
O=C(NC(C1CC1)C1CC1)C1CC2C=CC1C2 (centres undefined)	2	-4
COc1cc(-c2ccnc(N3CCN(C(=O)C(OC(C)=O)c4ccccc4)CC3)n2)cc(OC)c1OC (centres undefined)	11	6
Cc1ccccc1CNC(=O)CC1C(=O)NCCN1CC1CCCCC1 (centres undefined)	3&5	5&0
CCc1nc2n(n1)C(=O)C(C(c1cccs1)N1CCN(C(=O)c3ccco3)CC1)S2 (centres undefined)	-4	-2
Clc1ccc2nc(/C=C/c3ccccc3)c(NC3CCCCC3)n2c1	8	15
O=C(NN=Cc1cccs1)C1=COCCO1	-18	-25
CCN(CC)CCSc1nnc(N2CCN(c3ccc(OC)cc3)CC2)s1	-4	3
CCC(CC)NC(=O)CN(CC)Cc1cc(Br)ccc1O	2	32

# Taken from above, three compounds:
molecule	NPYLR7 agonist	NPYLR7 agonist max-min
O=C(NN=Cc1cccs1)C1=COCCO1	-18	-25
CCN(CC)CCSc1nnc(N2CCN(c3ccc(OC)cc3)CC2)s1	-4	3
CCC(CC)NC(=O)CN(CC)Cc1cc(Br)ccc1O	2	32

# (listing goes on)
molecule	NPYLR7 agonist	NPYLR7 agonist max-min
O=C(O)C1CCN(C(=O)CSc2n[nH]c(=O)n2CC2CCCO2)CC1 (centres undefined)	0	32
CCSc1nc(CC(=O)NCc2nnc3n2CCC3)cs1	1	-2
CCOc1ccc(S(=O)(=O)N2CCC(C(=O)NC(C)c3ccccn3)CC2)cc1 (centres undefined)	13	11
CC(C)n1ccnc1SCn1nnc2ccccc2c1=O	2	-3
COc1ccc(NC(=O)CCC(=O)OC(C(=O)c2ccc(C)c(C)c2)c2ccccc2)cc1 (centres undefined)	1	0
CCn1c(C)c(C(=O)CN(Cc2ccco2)C(=O)c2cccc([N+](=O)[O-])c2)c(C)c1C(=O)OC	-10	3
CCn1c(C2CCCN(Cc3cc4c(cc3C)OCCO4)C2)n[nH]c1=O (centres undefined)	-6	-5
O=C1CCNc2c(Br)cc(Br)cc21	-1	-4
COc1ccccc1N(CCCN1C(=O)c2cccc3cccc(c23)C1=O)C(=O)c1cccs1	-3	-12
COc1cccc(C2C(=C(O)c3ccc(C)cc3)C(=O)C(=O)N2CCCN(C)C)c1 (centres undefined)	-2	20
O=C(Nc1c(Cl)cccc1Cl)N1CCSC1c1cccc(Cl)c1Cl (centres undefined)	-1	0
CN(CCC#N)S(=O)(=O)c1cc2c3c(c1)CCN3C(=O)CC2	13	9
CN(CCCCCCCCC(=O)/C=N\O)Cc1ccccc1	-1	39
CCN1CCCC1CNC(=O)CCC1CCN(Cc2ccc3nsnc3c2)CC1 (centres undefined)	5	3
CC(C)N(CC(=O)N(Cc1ccc(F)cc1)Cc1ccco1)C(=O)c1ccc(-c2ccccc2)cc1	12	16
O=C(Nc1ccc(-c2nc3ccccc3o2)cc1)c1ccc2ccccc2c1	2	-5
CCn1c(C)[n+](CC)c2ccccc21	3	1
COc1ccc(C(=O)N(Cc2ccco2)Cc2c(-c3ccccc3)noc2N2CCCC2)cc1	5	6
COc1ccc(-c2nn(-c3ccccc3)cc2C=C2C(=O)NC(=S)NC2=O)cc1	0	-6
CCCC(CC(=O)OCC)NC(=O)c1cn(CCC2CCCCC2)nn1 (centres undefined)	-3&16	-3&6
COc1ccc(N(C)CCCO)cc1OC	-2	-6
CCOC(=O)C=C1SCC(=O)N1C	4	3
Cc1cccc(-n2nc(-c3ccccc3)c3c2N(CC(=O)NCC2CCCO2)C(=O)CSC3c2ccccc2Cl)c1C (centres undefined)	4	9
O[C@@H]1CN(c2ccnc3ccccc23)CC[C@H]1N1CCN(c2ccccn2)CC1	-6	1
CC(C)C(NS(=O)(=O)c1ccccc1)C(=O)NNC(=O)c1cccs1 (centres undefined)	1	7
CCCn1nc2ccccc2c1[P+](C)(N(CC)CC)N(CC)CC	7	7
FC(F)(F)c1cccc(CSc2nnc(-c3cc(-c4ccccc4)nc4ccccc34)n2CC2CCCO2)c1 (centres undefined)	-6	-10
CN1CCN(Cc2nc3c(c(=O)n(C)c(=O)n3C)n2Cc2ccccc2)CC1	9	9
COCCN1C(=O)N(Cc2cccnc2)C(=O)C12CCN(Cc1nc(-c3ccccc3)cs1)CC2	16	3
Cc1ccc2cccc(OC(=O)c3ccc(Cl)c(Cl)c3)c2n1	2	6

# A second format for part of the listing above:
# Sequence of screens: NPYLR7 agonist, NPYLR7 agonist max-min
CCn1c(C)c(C(=O)CN(Cc2ccco2)C(=O)c2cccc([N+](=O)[O-])c2)c(C)c1C(=O)OC
 : -10, 3
CCn1c(C2CCCN(Cc3cc4c(cc3C)OCCO4)C2)n[nH]c1=O (centres undefined)
 : -6, -5
O=C1CCNc2c(Br)cc(Br)cc21
 : -1, -4
COc1ccccc1N(CCCN1C(=O)c2cccc3cccc(c23)C1=O)C(=O)c1cccs1
 : -3, -12

# (cont.)
molecule	NPYLR7 agonist	NPYLR7 agonist max-min
CCOCCn1cc(C2CCN(S(=O)(=O)c3cc(Cl)ccc3OC)CC2)c2ccccc21	25	14
O=C1C(=O)N(CCN2CCOCC2)C(c2ccc(Cl)c(Cl)c2)C1=C(O)c1ccc(F)cc1 (centres undefined)	-2	21
Cc1ccc(S(=O)(=O)N2CCn3cccc3C2C)c(C)c1 (centres undefined)	8	11
O=C(Cn1c(=O)n(Cc2ccccc2)c(=O)c2ccccc21)NCc1ccccn1	18	28
CC1CCN(C2=C(c3c(-c4ccccc4)[nH]n(C)c3=O)C(=O)N(CC3CCCO3)C2=O)CC1 (centres undefined)	-2	-1
CC(C)C(O)CN(Cc1c(-c2ccccc2)nn(C)c1Oc1ccccc1F)CC1CCCO1 (centres undefined)	-1	0
COc1cc(C(=O)Nc2nc(-c3ccc(C)cc3)cs2)cc(OC)c1OC	-4	-8
CC(C)(C)NC(=O)N(Cc1ccc(C(F)(F)F)cc1)CC1CC(c2ccc(Cl)cc2)=NO1 (centres undefined)	12	11
CCOc1ccc(C2=NC(=Cc3cccc(F)c3)C(=O)O2)cc1OCC	0	11
O=C(Nc1c2c(nn1-c1ccccc1)CS(=O)(=O)C2)C1CC(=O)N(c2ccccc2)C1 (centres undefined)	-4	-6
NC(=O)C1CCN(c2ccc(NC(=O)CCCl)cc2S(=O)(=O)NCCc2ccccn2)CC1	7	4
CC(C)Oc1ccc(C(=O)Nc2cnc(C(C)(C)C)nc2)cn1	6&19	5&18
Cc1[nH]nc(CCC(=O)N2CCNCC(CC(=O)O)C2)c1C (centres undefined)	-3	-4
C=C(C)[C@@H]1CC=C(CN2CCC(Oc3cccc(C(=O)N4CCCC4)c3)CC2)CC1	3	4
O=C(c1ccc([N+](=O)[O-])cc1)N(Cc1cccc(OS(=O)(=O)c2cccc(C(F)(F)F)c2)c1)Cc1ccco1	5	2
CCN1C(=O)C(=C2CCCC2)C(=O)N(CC)C1=O	3	3
CCOCCCNC(=O)c1cc(NC(=O)Nc2ccc(C)c(Cl)c2)ccc1N1CCC(Cc2ccccc2)CC1	19	22
CC(C)(C)C1CCC(=NNc2ccc([N+](=O)[O-])cc2)CC1 (centres undefined)	-2	-3
Cn1cc(CCNC(=O)NCc2nnc3n2CCCCC3)cn1	4	2
Cc1nonc1CC(=O)NC1CC(=O)N(Cc2ccccc2C(F)(F)F)C1 (centres undefined)	3	-3
Cc1cc(C)cc(NC(=O)CCC(=O)c2ccc3c(c2)CCC3)c1	-1	-2
Cc1ccc(C2(O)CCN(C(=O)COc3ncnc4ccccc34)CC2)nc1	-2	-11
CCOC(=O)N(C)c1ccc(NC(=O)c2ccc3c(c2)OCO3)cc1	-5	-9
CC(C)c1ccc(-n2c(Cc3csc4nc(-c5ccccc5)nn34)n[nH]c2=S)cc1	-9	-13
CC(=O)Nc1cc(NC(C)=O)cc(C(=O)NC2(C)CCC(C)CC2)c1 (centres undefined)	-7	-12
CC(C)C(=O)N(Cc1ccccc1)CC1CC(c2ccccc2Cl)=NO1 (centres undefined)	11	7
COc1ccc(CN2CCCN(C(=O)C3CCN(C(=O)c4cccs4)CC3)CC2)cc1	3	-1
O=C(NCc1cccc(F)c1)c1ccccc1N1CCC(NC(=S)Nc2ccc(F)cc2)CC1	2	7
CSc1ccc([N+](=O)[O-])c(C(=O)Nc2nccs2)c1	6	1
C#CCN(Cc1cccnc1)C(=O)NCC1(Sc2ccccc2)CCCC1	-5	-5
CCCc1cc(C(=O)N2[C@@H]3CC[C@H]2CNC(=O)C3)cs1	-7	-8
Cn1ccnc1-c1ccc(N2CCc3c([nH]c4ccccc34)C2)nn1	25	17
O=C(Nc1ccc(-n2nc(OCc3ccc(F)cc3)nc2-c2cccc(C(F)(F)F)c2)cc1)C1CCC1	11	9
Cc1ccccc1-n1nc(C(C)(C)C)cc1NC(=O)CN(Cc1ccccc1)C(=O)CCc1ccccc1	-4	6
Cc1ccccc1S(=O)(=O)N1CCCn2nc(C(=O)N3CCCC3)cc2C1	-3	-3
CCCc1cnc2c(c1SCC(=O)NC1CCCC1)c(=O)n(C)c(=O)n2C	5	6
Cc1ccc(F)c(CN(CCC(N)=O)C(C)C)c1F	11	6
O=C(Nc1cccnc1N1CCN(C(=O)c2ccc(OC(F)F)cc2)CC1)c1ccc2c(c1)OCO2	5	4
CCCOc1c(Cl)cc(C=C(C#N)C(=O)OC)cc1OCC	2	1
CCN1C(=O)C2(c3ccccc31)c1oc(CO)cc(=O)c1OC(=N)C2C#N (centres undefined)	7	4
CCN1CCN(c2c(CN(CCOC)C(=O)c3cccc(Br)c3)c(C)nn2-c2cccc(F)c2)CC1	1	7
CC(C)c1nccn1Cc1cc(C(=O)N(C)CC2COc3ccccc3O2)n[nH]1 (centres undefined)	3	-7
COc1ccccc1-n1c(SCc2ccc(C(=O)N3CCCC3)cc2)nnc1-c1cccs1	-6	-4
COc1ccc(S(=O)(=O)NC(C)C2c3cc(OC)c(OC)cc3CCN2Cc2ccc(F)cc2)cc1 (centres undefined)	13	19
CC(C)N(Cc1cc(Cl)ccc1OCc1nc(CO)cs1)C(=S)Nc1ccc(F)cc1	4	18
COc1ccc2c(c1)c(C1=C(c3c[nH]c4ccccc34)C(=O)NC1=O)cn2CCCN(C)C	4	-1
CCCc1cc(NCCCN2CCOCC2)n2nc3nc(C)cc(C)c3c2n1	2	9
CN(CC1Cc2ccccc2O1)C(=O)c1ccc2oc(CCc3ccccc3)nc2c1 (centres undefined)	16	13
C[N+](C)(C)CC=O	6	-11
CCCCCCCOc1ccc(C(C)=NOC)cc1	7	5
Oc1[nH]c2ccc(F)cc2c1N=Nc1c(Cl)cc(Cl)cc1Cl	2	2
O=C(c1ccc2c(c1)OCO2)C1CCCN(C(=O)c2cnn(Cc3ccccc3)c2)C1 (centres undefined)	14	10
COc1ccccc1NC(=O)c1ccc(SCc2ccccc2)nc1	-10	-15
O=S(=O)(Oc1ccc(CNCc2ccc(F)cc2)cc1)c1ccc(F)cc1	7	8
